SARS PLpro yeast: SARS-CoV PLP inhibition in yeast; S. cerevisiae expressing SARS-CoV PLpro, growth rescue; control for the full effect not named in the record; Potency, µM (top dose mostly 32.9 µM), inactives show at the top dose activity, positive = growth rescue; actives 0.19% (n = 330,000); AID 485353; active means well fitted rising curve with a large enough effect; inconclusive means small, poorly fitted or top-dose-only effect; inactive means no such curve, though single readings can be large or run the other way; note: 0% is about no effect; nearly all actives have a fitted effect of over 55% in size; growth read by luminescence after 48 h
MARV entry inh: Marburg virus entry inhibition; Marburg virus pseudotyped entry inhibition, cell reporter; control for the full effect not named in the record; about a third of the inactives were read at about 46 µM; Potency, µM (doses to about 37.8 µM), for the others: at the top dose activity change, negative = inhibition, usual class: inhibitors; actives 1.8% (n = 300,000); active = well fitted inhibition curve with a large enough effect; inconclusive = small, poorly fitted or top-dose-only effect, or effect the other way; inactive = flat fitted curve, though single readings scatter; tested in HEK293 cells; about a fifth of its hits are not listed in these tables; note: % is set by controls: 0 for no effect and ±100 for the full control effect; luciferase read-out
Cruzain Triton: blocks cruzain activity in presence of Triton detergent; P25779; purified cruzain, Z-FR-AMC fluorescence, 0.01% Triton; Potency, µM, without a hit: max response, negative = inhibition, usual class: inhibitors; actives 0.43% (n = 200,000); AID 1478;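 note: plate controls were neutral wells for no effect and buffer without enzyme for full effect; nearly all actives have a fitted effect of over 40% in size; top concentration of the series not given in the record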
Target sequence (P25779 123-467 limits assumed): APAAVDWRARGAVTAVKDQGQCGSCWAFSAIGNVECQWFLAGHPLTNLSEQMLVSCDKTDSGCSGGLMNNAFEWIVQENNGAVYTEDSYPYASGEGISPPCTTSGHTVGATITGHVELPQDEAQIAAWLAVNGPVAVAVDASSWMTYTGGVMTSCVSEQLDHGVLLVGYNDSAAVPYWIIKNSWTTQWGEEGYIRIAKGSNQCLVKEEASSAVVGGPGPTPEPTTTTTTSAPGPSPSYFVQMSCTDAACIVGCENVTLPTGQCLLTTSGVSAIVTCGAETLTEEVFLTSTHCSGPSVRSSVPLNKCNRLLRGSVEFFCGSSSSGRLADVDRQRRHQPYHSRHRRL
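Purified cruzain (1.5 nM final) was preincubated with compounds for 15 min at room temperature in 100 mM sodium acetate pH 5.5, 5 mM DTT, 0.01% Triton X-100. Reaction started with 2 uM Z-FR-AMC; AMC fluorescence change over 60 s gave activity.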
2A StopGo: lowers the luciferase signal of an FMDV 2A StopGo reporter; AID 1159524; actives 1.2% (n = 410,000); Potency, µM (top dose mostly 57.9 µM), inactives show at the top dose signal change, negative = less light; human cells with a luciferase reporter of 2A StopGo recoding; control for the full effect not named in the record; active = well fitted falling curve with a large enough effect; inconclusive = small, poorly fitted or top-dose-only effect; inactive = no such curve, though single readings can be large or run the other way; tested in HEK293T cells; note: % is set by controls: 0 for no effect and ±100 for the full control effect; nearly all actives have a fitted effect of over 45% in size; luciferase light after 4 h
Cruzain inh noDet: blocks cruzain activity in detergent-free assay; purified cruzain, Z-FR-AMC fluorescence, no detergent; AID 1476; actives 2.3% (n = 200,000); P25779; Potency, µM, inactives show max response, negative = inhibition, actives largely listed as inhibitors;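 note: plate controls were enzyme without inhibitor for no effect and buffer without enzyme for full effect; nearly all actives have a fitted effect of over 40% in size; top concentration of the series not given in the record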
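Detergent-free condition (0.00005% Triton X-100) in acetate buffer pH 5.5 with DTT. 1.5 nM enzyme and compound were pre-mixed 15 min, then 2 uM Z-FR-AMC substrate added; reaction progress from fluorescence change between first and third reads (60 s).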
Lassa entry inh: blocks Lassa virus binding to or entry into cells | Lassa virus pseudotype entry inhibition, cell reporter; control for the full effect not named in the record | Potency, µM (doses to about 37.9 µM), for the others: at the top dose activity change, negative = inhibition, actives largely listed as inhibitors | actives 1.2% (n = 300,000); active means well fitted inhibition curve with a large enough effect; inconclusive means small, poorly fitted or top-dose-only effect, or effect the other way; inactive means flat fitted curve, though single readings scatter; tested in HEK293 cells; note: % is set by controls: 0 for no effect and ±100 for the full control effect; nearly all actives have a fitted effect of over 50% in size; luciferase read-out
NS1 function inh: inhibitors of influenza NS1 protein function; S. cerevisiae slowed by influenza A NS1, growth recovery by OD600; Potency, µM (highest dose often 46.1 µM), for the others: at the top dose activity, positive = more growth; actives 0.4% (n = 270,000); AID 2326; active means well fitted rising curve with a large enough effect; inconclusive means small, poorly fitted or top-dose-only effect; inactive means no such curve, though single readings can be large or run the other way; note: nearly all actives have a fitted effect of over 50% in size
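S. cerevisiae expressing influenza A NS1, grown in glucose, washed, then diluted 1:100 into pH 6.0 -URA galactose medium with 23 nl compound. Growth recovery read as OD600; NS1-free strain serves as control.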
RE007 growth inh: less growth of the S. pombe RE007 Vpr strain | AID 651644 | Potency, µM (top dose mostly 92.2 µM), for inactives: top-dose activity change, negative = less growth | S. pombe RE007 Vpr strain, BacTiter-Glo ATP luminescence, 24 h; control for the full effect not named in the record | actives 0.21% (n = 360,000); active = well fitted falling curve with a large enough effect; inconclusive = small, poorly fitted or top-dose-only effect; inactive = no such curve, though single readings can be large or run the other way;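 note: % is set by controls: 0 for no effect and ±100 for the full control effect; nearly all actives have a fitted effect of over 50% in size; the assay follows cell death caused by Vpr and the record does not say whether a fall means rescue or toxicity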
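Fission yeast strain RE007, carrying one chromosomally integrated HIV-1 vpr copy, was seeded at OD 0.01 in PMG+AL medium with 23 nL pinned compound. After 24 h at 30 °C and 99% humidity, viability was read by BacTiter-Glo luminescence.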
An asterisk follows results filed as active; ? = inconclusive; · = not tested or not shown; [ ] = remark or other dose. Unless noted, calls come from the whole dose curve; as a rule, active = well fitted curve in the direction sought with a large enough effect; inconclusive = small, poorly fitted or top-dose-only effect, or another doubt; inactive = no such curve, though single readings can be large; an effect the other way counts as inactive or inconclusive. Potency is the fitted concentration of half-maximal effect. Not a hit list, and some 4.5% of all compounds hit somewhere here.

SMILES	SARS PLpro yeast	MARV entry inh	Cruzain Triton	2A StopGo	Cruzain inh noDet	Lassa entry inh	NS1 function inh	RE007 growth inh
CCOC(=O)CN(C(=O)CSc1nnc(CNc2ccc(F)cc2)o1)c1ccccc1	-5.0%	-19.3%[46.1 µM]	1.2%	0.0%	1.0%	?	5.2%	-7.6%
COc1ccc(CCN2C(=O)CC(C(N)=O)SC2=Nc2ccccc2)cc1OC (stereo not given)	3.7%	1.7%	0.3%	-21.0%	?	-15.0%	-9.6%	-13.9%
COc1cccc(Oc2nc(C)nc3c2oc2ccccc23)c1	·	·	-4.2%	-17.1%	?	?	·	·
Cc1ccc2c(c1)N(CC(=O)N1CCOCC1)C(=O)CO2	-2.4%	-1.6%[46.1 µM]	·	-9.3%	·	-5.3%[46.1 µM]	4.4%	14.4%
Cc1cc(NS(=O)(=O)c2ccc(NC(=O)COc3ccc(Br)cc3C)cc2)no1	·	11.4%[46.1 µM]	-26.2%	51.0%[activator]	-14.4%	10.9%[46.1 µM]	·	·
COc1ccc(F)cc1S(=O)(=O)NCCc1csc(-c2ccc(Cl)cc2)n1	·	·	-11.5%	27.8%	8.1%	24.5%[46.1 µM]	·	·
CC12CCC3(CC1CCC1OC12)OCCO3 (stereo not given)	·	-0.3%	·	-23.2%	·	-5.0%[46.1 µM]	·	-11.7%
O=C(O)C1CC(=O)N(c2ccc(Br)cc2)C1 (stereo not given)	4.0%	-4.4%	5.0%	4.6%	-2.4%	15.6%	5.1%	21.1%
COCCCn1c(SCc2nnc(-c3ccccc3)o2)nc2sc3c(c2c1=O)CCC3	-14.1%	-0.1%	-3.4%	-3.1%	?	10.0%	22.8%	5.9%
Cc1cc(Nc2ccccc2F)n2nc(Cc3ccc(Cl)cc3)nc2n1	·	?	-0.4%	-1.1%	4.0%	-25.0%[46.1 µM]	·	·

Six entries picked at random from the list so far:
SMILES	SARS PLpro yeast	MARV entry inh	Cruzain Triton	2A StopGo	Cruzain inh noDet	Lassa entry inh	NS1 function inh	RE007 growth inh
COc1ccc(CCN2C(=O)CC(C(N)=O)SC2=Nc2ccccc2)cc1OC (stereo not given)	3.7%	1.7%	0.3%	-21.0%	?	-15.0%	-9.6%	-13.9%
Cc1cc(NS(=O)(=O)c2ccc(NC(=O)COc3ccc(Br)cc3C)cc2)no1	·	11.4%[46.1 µM]	-26.2%	51.0%[activator]	-14.4%	10.9%[46.1 µM]	·	·
COc1ccc(F)cc1S(=O)(=O)NCCc1csc(-c2ccc(Cl)cc2)n1	·	·	-11.5%	27.8%	8.1%	24.5%[46.1 µM]	·	·
O=C(O)C1CC(=O)N(c2ccc(Br)cc2)C1 (stereo not given)	4.0%	-4.4%	5.0%	4.6%	-2.4%	15.6%	5.1%	21.1%
Cc1cc(Nc2ccccc2F)n2nc(Cc3ccc(Cl)cc3)nc2n1	·	?	-0.4%	-1.1%	4.0%	-25.0%[46.1 µM]	·	·
CCOC(=O)CN(C(=O)CSc1nnc(CNc2ccc(F)cc2)o1)c1ccccc1	-5.0%	-19.3%[46.1 µM]	1.2%	0.0%	1.0%	?	5.2%	-7.6%

New compounds follow
SMILES	SARS PLpro yeast	MARV entry inh	Cruzain Triton	2A StopGo	Cruzain inh noDet	Lassa entry inh	NS1 function inh	RE007 growth inh
Cc1c(-c2nsc(NC(=O)c3cccs3)n2)nnn1-c1ccc(F)cc1	·	·	3.4%	16.7%	?	-2.3%[46.1 µM]	·	·
CCN(CC)c1ccc(N2C(=O)/C(=C\c3cccnc3)SC2=S)cc1	-8.6%	17.2%	-4.9%	-8.8%	?	?	4.5%	2.7%
Cc1ccccc1C(=O)c1c[nH]c(C(=O)NCCCn2ccnc2)c1	2.6%	-2.2%	5.2%	-23.9%	7.7%	0.4%	-2.3%	-3.5%
CCCCNC(=O)NNC(=O)COc1cccc(C)c1C	-11.9%	32.7%	0.7%	-2.7%	3.9%	?	-0.4%	-2.8%
CC[C@@H](C(=O)n1nc(C)cc1C)[C@H](NS(=O)(=O)c1ccc(C)cc1)c1ccccc1	-19.4%	-21.5%	-3.5%	-18.5%	-6.3%	-19.3%	-2.8%	5.9%
Cc1ccc(/C=C2\C(=O)NC(=S)N(c3ccccc3F)C2=O)s1	-90.6%	?	2.2%	?	13.1%	?	5.9%	-1.0%
CC1(C)Cc2nc3sc(C(N)=O)c(N)c3cc2CO1	0.5%	·	·	27.5%	·	·	-3.3%	2.7%
COc1ccc(C2C(=O)N(C3CCCCC3)CC(=O)N2CCc2ccccc2)cc1OC (stereo not given)	-5.0%	-4.8%	7.4%	2.8%	0.7%	-9.0%	-10.7%	-13.6%
Cc1ccc(-n2nnnc2SCn2nnc3ccccc3c2=O)cc1	-11.7%	-14.3%	0.7%	-14.3%	-7.9%	-8.4%	3.0%	-2.3%
Cc1cc2cc(CNC(=O)c3cccc([N+](=O)[O-])c3)ccc2[nH]1	0.7%	?	-2.0%	-17.6%	?	-18.4%	14.1µM*	2.7%
CCn1c(CN2CCOCC2)nnc1SCC(=O)Nc1ccc(C(C)=O)cc1	-1.0%	-6.4%	·	-3.7%	·	-6.5%	-10.1%	-7.0%
COCCn1nnnc1C(c1cccs1)N1CCN(c2ccccc2)CC1 (stereo not given)	-0.8%	6.9%	2.3%	·	4.6%	-17.6%	-10.7%	5.3%
Cc1ccc(OCCn2ccnc2)c(C)c1	-9.5%	·	·	-10.8%	·	·	-1.2%	-1.5%
CCCc1nc2oc3c(OC)ncnc3c2c2c1COC(C)(C)C2	2.3%	-15.5%	-1.4%	-8.9%	?	-10.9%	0.3%	-11.5%
COc1ccc(N(C(=O)c2ccc(OC)c(OC)c2)S(=O)(=O)c2ccc(Cl)cc2)cc1	·	·	-4.4%	-16.0%	8.7%	?	·	·
COc1cc2ccccc2cc1C(=O)Nc1cccc(-c2nc3ccccc3o2)c1	·	·	-3.9%	-8.6%	?	2.3%[46.1 µM]	·	·
CCOc1ccc(C(=O)NCC(=O)OCC(=O)N(C)CC(=O)Nc2ccccc2CC)cc1OCC	·	-3.2%	·	-19.5%	·	1.7%	·	2.0%
CCCCOc1ccc(C(=O)NCc2ccncc2)cc1	0.7%	8.5%	2.4%	-11.9%	2.6%	3.1%	-7.1%	-10.2%
CC(C)(C)NC(=O)C(c1ccncc1)N(CC1CCCO1)C(=O)Cn1nnc(-c2ccc(F)cc2)n1 (stereo not given)	-0.7%	0.5%[46.1 µM]	·	-12.6%	·	2.9%[46.1 µM]	3.0%	-5.6%
Cc1ccn2cc(CCNC(=O)CC(C)(C)C)nc2c1	-8.3%	2.1%	0.9%	8.9%	1.5%	6.7%	-4.8%	-8.7%
COc1ccc(N2CC(C(=O)N[C@@H](CC(C)C)C(=O)NC3CCCC3)CC2=O)cc1 (stereo not given in full)	0.6%	?	·	-11.4%	·	0.1%[46.1 µM]	-0.5%	-0.5%
CC(=O)Nc1ccc(S(=O)(=O)NCCC(=O)NC2CCCCCC2)cc1	0.8%	-13.6%	·	-11.6%	·	-3.4%	·	7.6%
Cc1cccc(C2=NN(c3ccccc3)[C@H](CO)[C@H]2c2ccc(Cl)cc2)c1	-66.0%	·	0.2%	-28.0%	35.5µM*	·	·	8.7%
CCN(Cc1ccccc1OC)CC1CCCN(CCc2cccc(OC)c2)C1 (stereo not given)	-2.2%	?	·	-16.2%	·	?	-9.2%	?
O=c1c2sccc2n(Cc2cc(=O)n3cc(Cl)ccc3n2)c(=O)n1-c1ccccc1	·	6.8%[46.1 µM]	-10.2%	14.7%	-8.6%	-20.9%[46.1 µM]	·	·
CC(=O)OC(C(=O)NCS(=O)(=O)c1ccc(C)cc1)c1cccnc1 (stereo not given)	8.7%	-5.0%	-4.1%	-12.9%	9.9%	1.4%	0.4%	5.1%
O=C(Nc1ccc(-c2nc3cccnc3s2)cc1)c1ccc(Br)o1	-8.2%	·	-8.4%	12.8%	?	·	-34.8%	25.1%
O=C(CC(c1ccccc1)C1CCCCC1=O)c1ccccc1 (stereo not given)	·	-15.1%	·	-6.2%	·	-1.9%	·	-12.1%
CCn1c(O)c(N=NC(=O)c2ccc(CSc3nncn3C)cc2)c2ccccc21	16.9%	-39.8%	-6.8%	-19.6%	7.2%	2.4%	0.5%	·
O=C(CN1CCN(S(=O)(=O)c2ccc3ccccc3c2)CC1)N1CCc2ccccc2C1	-1.1%	1.2%	1.1%	?	26.7%	-14.8%	-64.6%	10.4%
CCOc1nc(CC)nc(NC(=O)NS(=O)(=O)c2ccccc2Cl)n1	7.0%	?	0.4%	3.2%	1.6%	11.2%	2.0%	11.6%
CSCCC(N=Cc1c(O)n(-c2ccc(Cl)cc2)c(=O)[nH]c1=O)C(=O)OC(C)(C)C (stereo not given)	5.7%	8.7%	-2.3%	4.5%	-5.2%	7.6%	-3.7%	-18.1%[3.69 µM]
Cc1noc(C)c1COC(=O)CCCOc1ccc(Cl)cc1Cl	-32.3%	6.1%	-7.0%	10.8%	4.9%	0.1%	-115.8%	-15.2%
OCC1(CO)COC(CCc2ccccc2)=N1	-4.3%	·	·	-6.0%	·	·	0.2%	13.1%
CCOC(=O)CSc1nc2ccccc2c(=O)n1-c1cccc(C)c1	·	0.3%[46.1 µM]	-6.0%	-10.6%	-10.4%	1.8%[46.1 µM]	·	·
O=C(NCCN1CCOCC1)/C(=C/c1ccc(F)cc1)NC(=O)c1ccccc1	1.1%	?	·	-21.7%	·	?	7.8%	-2.9%
O=C(Cc1ccc(F)cc1)NC(Cc1c[nH]c2ccccc12)C(=O)O (stereo not given)	-0.2%	3.0%[46.1 µM]	·	17.2%	·	10.4%	?	17.5%
O=C(NC(=S)Nc1ncccn1)c1ccc(F)cc1	0.5%	?	·	33.3%[activator]	·	2.6%[46.1 µM]	3.9%	10.3%
O=C(/C(=C/O)N=Nc1ccccc1)c1ccco1	-7.3%	?	·	-10.8%	·	?	·	25.5%
COc1cccc(-n2ccnc2SCC(=O)Nc2cc(OC)ccc2OC)c1	-4.0%	-53.5%	-0.8%	-14.7%	-6.2%	-1.6%	-146.6%	8.0%
